# MLL AF4-AF9 inh = inhibitors of human MLL-AF4/AF9 interaction; P42568; AlphaScreen, biotin-AF4 peptide binding to FLAG-AF9; inhibition, % at 10 µM; actives 0.47% (n = 350,000); AID 651704;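 active = every replicate reaching a set inhibition limit, whatever the replicate mean, cut at about 25% in these data; inconclusive = mean inhibition reaches that limit but some replicates miss it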;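 note: 0% = plate neutral control median and 100% = total signal loss; the record names both 10 and 1 µM as test concentration; the first replicate is given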
# Vif TR-FRET = inhibitors of Vif binding to APOBEC3G peptide, primary screen, biochemical, TR-FRET, GST-Vif 1-94, biotin-A3G peptide, dose response retest (AID 1117319); inhibition, %, or IC50 in µM where a hit was titrated; actives 0.57% (n = 260,000); TR-FRET GST-Vif / biotin-A3G peptide binding; higher % means a stronger effect; test concentration not given here; strong numbers were not always called active;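 active = above the screen mean plus three standard deviations and confirmed in dose response; inconclusive = results disagree or hit not tested in dose response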;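 note: Vif residues 1-94 fused to GST binding biotinylated APOBEC3G peptide 110-148; 0% = full assay without inhibitor and 100% = GST in place of GST-Vif; retest series ran down from 100 µM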
# T cruzi repl = blocks replication of Trypanosoma cruzi; actives 1.4% (n = 300,000); AID 1885; inhibition, % (no concentration beside the values); T. cruzi beta-gal in NIH3T3, luminescence, 90 h;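 active = mean inhibition across valid replicates above about 55%, limit read from the data; inconclusive = mean below that limit but half or more replicates reach it; inactive = mean below it, under half of replicates reach it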;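 note: signal also drops with host cell toxicity which is not excluded here; 0% = plate median of DMSO wells and 100% = zero luminescence signal; higher percent means less beta-gal luminescence so fewer parasites; stock transfer was 50 nL into about 50 µL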
# Beta cell apopt = blocks beta cell apoptosis; INS-1E cytokine-induced death, ATP luminescence, 48 h; percent of positive-control rescue, neutral wells zero; protection from apoptosis, % (test concentration not listed); actives 0.8% (n = 300,000);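 active = all replicates at 75% or more, or half of them and the mean; inconclusive = half reach 75% but not the mean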;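 note: 0% = cytokine-treated negative control wells and 100% = positive control rescue; higher means more ATP so stronger rescue from cytokine killing; wells of about 40 µL received 100 nL stock; the first replicate is given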
# LANA-H2B inh = blocks KSHV LANA binding to histone H2A/H2B; Q9QR71; cell-free LANA-H2A/H2B peptide, fluorescence polarization; inhibition, % (test concentration not listed); actives 0.6% (n = 320,000); AID 2629; in the data active = inhibition mostly above about 10%, no sharp cut-off; inactive = mostly below about 6.7%;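 note: stock transfer was 7.5 nL into about 10 µL; 0% = median of vehicle wells and 100% = median of positive control wells; one replicate is shown; the record names a cut of 25% in any replicate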
# Target sequence (Q9QR71 whole entry, looked up): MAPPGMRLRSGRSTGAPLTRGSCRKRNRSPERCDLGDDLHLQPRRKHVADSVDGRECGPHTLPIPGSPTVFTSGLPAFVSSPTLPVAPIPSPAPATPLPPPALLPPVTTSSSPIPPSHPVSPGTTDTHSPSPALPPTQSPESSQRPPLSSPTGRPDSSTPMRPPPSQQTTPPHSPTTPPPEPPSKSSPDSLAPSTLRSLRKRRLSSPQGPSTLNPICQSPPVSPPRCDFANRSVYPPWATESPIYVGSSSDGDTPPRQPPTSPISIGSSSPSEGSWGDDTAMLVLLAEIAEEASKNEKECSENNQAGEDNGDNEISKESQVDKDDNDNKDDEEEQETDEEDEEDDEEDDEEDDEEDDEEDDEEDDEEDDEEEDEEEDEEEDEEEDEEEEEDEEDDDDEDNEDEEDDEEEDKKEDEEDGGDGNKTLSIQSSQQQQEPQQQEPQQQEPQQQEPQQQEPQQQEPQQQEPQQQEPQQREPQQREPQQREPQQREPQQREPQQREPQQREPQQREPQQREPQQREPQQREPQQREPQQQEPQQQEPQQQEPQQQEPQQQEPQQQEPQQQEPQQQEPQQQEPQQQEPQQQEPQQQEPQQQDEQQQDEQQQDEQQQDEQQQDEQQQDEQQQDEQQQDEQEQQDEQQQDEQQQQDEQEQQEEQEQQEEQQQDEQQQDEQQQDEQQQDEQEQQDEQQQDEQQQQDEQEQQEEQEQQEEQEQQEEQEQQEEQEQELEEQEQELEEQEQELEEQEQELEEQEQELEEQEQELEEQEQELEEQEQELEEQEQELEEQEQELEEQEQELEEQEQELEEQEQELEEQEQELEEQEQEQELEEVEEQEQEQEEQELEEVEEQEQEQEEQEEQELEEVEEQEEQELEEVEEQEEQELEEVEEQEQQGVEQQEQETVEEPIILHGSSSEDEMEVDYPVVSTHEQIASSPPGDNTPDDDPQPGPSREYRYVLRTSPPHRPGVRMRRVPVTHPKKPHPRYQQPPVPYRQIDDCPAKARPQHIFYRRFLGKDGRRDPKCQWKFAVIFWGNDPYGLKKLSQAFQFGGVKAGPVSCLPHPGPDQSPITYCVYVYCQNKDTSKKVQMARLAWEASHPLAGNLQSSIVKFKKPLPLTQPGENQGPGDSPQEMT
# RanGTP-Impb inh = disruptors of Ran-importin-beta complex formation – biochemical, FRET, CFP-Ran, YFP-importin-beta, homogeneous, primary screen; cell-free CFP-Ran/YFP-importin-beta FRET ratio; inhibition, % (no concentration beside the values); actives 1.1% (n = 300,000);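 active = most replicates above 15%; inconclusive = exactly half above 15%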;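 note: 0% = DMSO wells and 100% = Ran loaded with GDP instead of GTP; wells of about 40 µL received 100 nL stock; the first replicate is given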
# Bfl-1 A1 inh = inhibitors of the anti-apoptotic protein A1, read as caspase activation; caspase activation, % (concentration not given with the values); MEF A1-2A-BIM cells, Caspase-Glo 3/7 luminescence, 3 h; percent of clofoctol response, vehicle zero; AID 2462; actives 0.066% (n = 330,000);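 active = over half of replicate activation scores above 10%, or exactly half above 10 with the replicate mean above 10; inconclusive = replicate mean below 10 yet half the replicates above 10; inactive = over half of replicates below 10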;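 note: wells of about 30 µL received 50 nL stock; many hits fall short of the cut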
# Calb FLC = C. albicans growth modulation with fluconazole. growth inhibition, % (no concentration beside the values). AID 1979. C. albicans CaCi-2 (fluconazole-resistant clinical isolate) + fluconazole, Alamar Blue growth, 48 h. actives 0.57% (n = 300,000);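 active = most replicates above 75%; inconclusive = exactly half above 75%; inactive = most below 75%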;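 note: all wells also contain fluconazole at 8 µg/ml as a sub-toxic cotreatment; 0% = median of DMSO wells and 100% = median of geldanamycin control wells; wells of about 8 µL received 7.5 nL stock; the first replicate is given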
# An asterisk follows results filed as active; ? = inconclusive; nt = not tested or not shown; & = joins results of further samples.
Compound,MLL AF4-AF9 inh,Vif TR-FRET,T cruzi repl,Beta cell apopt,LANA-H2B inh,RanGTP-Impb inh,Bfl-1 A1 inh,Calb FLC
COc1ccc(-c2c(-c3ccc(O)cc3O)n[nH]c2C)cc1OC,nt,6%,5,-8,-1.5,2.5,-0.3,?
C=CCSc1nnc(CCCCCN2C(=O)c3cccc4cccc(c34)C2=O)o1,-0.4,0%,22,0,-1.6,?,-0.9,-8
Cc1ccc2c(c1)N(CC(=O)c1cccc(Cl)c1)C(=O)C(C)O2 (stereo not given),nt,33%,nt,-1,-3.7,3.3,0.7,-21
CCCCOP(=O)(c1ccc(N(C)C)cc1)C(O)c1ccc(C(C)C)cc1 (stereo not given),2.6,nt,8,1,-0.8,0.5,0.9,4
CCc1nc(SCC(=O)Nc2cc(C)on2)c2c(C)c(C)sc2n1,nt,-27%,-12,1,-6.4,-2.0,0.1,-16
Cc1ccccc1-n1nnnc1-c1ccccc1,nt,15%,10,-5,-0.4,3.5,0.5,7
CCOc1ccc(N/C=C/C(=O)c2ccc(OC)cc2)c([N+](=O)[O-])c1,nt,8%,11,-2,-1.2,-3.9,-0.4,-11
COc1ccc(-n2nc3c(c2NC(=O)CC(C)C)CS(=O)C3)cc1 (stereo not given),-1.7,nt,-9,1,2.0,3.5,0.0,4
O=C(c1ccco1)N1CCN(Cc2nnnn2CC2CCCO2)CC1 (stereo not given),-0.9,nt,-4,-6,1.8,?,0.1,-26
CC1CC(C)CN(CC(O)COC2CC(C)CC(C)(C)C2)C1 (stereo not given),6.9,nt,12,2,4.4,-0.7,0.6,-27
CCCNc1[nH]c(=O)n(C)c(=O)c1N=O,nt,?,0,-9,4.3,3.6,-0.1,-3
COc1cccc(CNC(=O)C2CCN(S(=O)(=O)c3cccc4nonc34)CC2)c1,-2.4,nt,-2,0,0.8,1.4,0.4,2
Cc1ccc(Nc2cc(C)nc(N3CCOCC3)n2)c(C)c1,1.3,nt,3,-14,-0.1,1.4,-0.4,36
CCC1(C)Cc2ccccc2-c2nc(NCCO)[nH]c(=O)c21 (stereo not given),nt,-2%,0,2,-1.3,-1.8,0.2,-1
Cn1c(=O)n(CC(=O)N2CCOCC2)c2ccccc21,nt,-4%&31%,19,-4,-0.2,5.0,0.4,1
CC(=O)NC(c1ccc(C(C)C)cc1)c1ccc2cccnc2c1O (stereo not given),3.7,nt,56*,90*,-6.1,1.2,-0.1,0
CC(OC(=O)c1ccc2ccccc2n1)C(=O)c1ccccc1 (stereo not given),-2.2,8%,2,-1,-1.8,1.2,-0.5,-6
CCc1c(C)sc(NC(=O)c2cc(-c3ccco3)on2)c1C#N,nt,>100µM*,-4,1,1.6,3.5,-0.5,9
Cc1cc(N2CCN(c3ccccc3Cl)CC2)n2cc(-c3ccccc3)nc2n1,nt,-1%,51,nt,2.1,-2.6,2.4,5
CCCCN(C(=O)NC(=O)C1=C(N2CCOCC2)/C(=C/c2ccccc2)CC1)S(C)(=O)=O,7.0,-3%,7,2,-2.6,0.5,0.3,-10
CC1(C(=O)NCCc2c[nH]c3ccccc23)C=CCN1C(=O)c1ccccc1 (stereo not given),-1.0,-7%,-3,3,2.4,-1.7,-0.1,8
Cc1c(C(=O)OCC(=O)c2ccc3c(c2)OCCO3)oc2ccccc12,nt,7%,2,-3,-1.4,-0.5,-6.9,-3
CCNc1nc(NC(C)C)nc(ON=C(C)C)n1,nt,1%,-3,nt,-0.3,2.5,0.0,42
CCOC(=O)N1CCC(NC(=O)Cn2c3c(c(-c4ccccc4Cl)cc2=O)CCC3)CC1,-7.0,?,2,4,6.2,-2.4,1.0,-6
O=C(Nc1ccc(F)cc1)C1CCC(CNc2c(N3CCCCC3)c(=O)c2=O)CC1 (stereo not given),7.7,nt,-7,4,0.5,3.7,0.6,-6
O=C(CN1C(=O)c2cccnc2Oc2ccc(Cl)cc21)NCCC1=CCCCC1,-1.8,14%,3,0,2.9,3.1,-1.8,1
CCOC(=O)c1c(C)[nH]c(C(=O)COC(=O)c2cnc(C)cn2)c1C,nt,0%,-10,-8,-0.3,-1.1,1.0,1
O=C1CCC(=O)N1CC(=O)N(c1ccccc1)c1ccccc1,-2.6,11%,-8,-7,4.1,1.8,1.1,-12
Cc1csc(NC(=O)CSc2nnnn2C)n1,nt,-5%,-7,-7,0.2,2.9,-0.9,64
CCOC(=O)c1[nH]c(=O)[nH]c1COC(=O)c1cc2ccccc2o1,nt,19%,-13,-2,1.1,2.0,-0.4,-2
CCOC(=O)c1c(C)[nH]c(C(=O)COC(=O)/C=C/c2cccc(OC)c2OC)c1C,-5.2,nt,-8,7,-2.1,2.8,0.6,-4
CCN(CC)C(NC(=O)Cc1ccccc1)C(Cl)(Cl)Cl (stereo not given),nt,-4%,-18,-3,1.1,-2.0,0.8,-4
CCn1c(O)c(/C=C/C=C/C=Nc2ccccc2)sc1=S,4.4,-8%,-30,0,-1.5,1.4,0.6,22
O=C(CS)Nc1ccc2ccccc2c1,-0.6,-8%,47,-6,0.1,5.8,-0.6,-5
COc1ccc(OCc2nc(N)nc(Nc3ccc(C)cc3)n2)cc1,nt,-7%,-9,-6,-4.8,0.9,-0.1,25
O=C(COC(=O)CNC(=O)c1ccccc1)Nc1ccc(F)c([N+](=O)[O-])c1,0.3,-10%,8,-4,-0.9,3.1,2.3,-7
COC(=O)c1ccccc1NC(=O)c1cnn2c(C(F)F)cc(C3CC3)nc12,nt,0%,21,11,-2.5,-3.1,0.0,-6
CCOC(=O)c1nnn(-c2nonc2-n2cccc2)c1CN1CCC(C)CC1,nt,0%,17,-4,-3.3,-0.6,0.1,-4
Cc1cccc(CN2CCN(C(C)C(=O)NC(C)c3ccccc3)CC2)c1 (stereo not given),-2.1,-3%,28,-13,2.7,5.4,-0.4,-3
COC(=O)Cc1ccc(NC(=S)NCCSc2ccc(C)cc2)cc1,5.4,nt,17,-2,4.3,-0.1,0.3,18
Cc1cc(N/N=C2\CC(C)CC(C)(C)C2)nc2ccccc12 (stereo not given),?,8%,45,6,3.7,0.2,-0.3,87*
COc1cccc(NC(=S)N2CCc3cc(OC)c(OC)cc3C2)c1,6.1,6%,-16,1,-3.5,5.8,1.1,5
CCOc1cc(C(=O)OCC(=O)Nc2cc(C)on2)cc(OCC)c1OCC,nt,-3%,-16,-8,-2.3,4.5,0.5,1
S=C(NCCSCc1ccccc1Cl)Nc1ccccc1,nt,9%,28,3,-2.6,3.0,-0.5,3
O=C(NCCc1ccccc1)C(c1ccccc1)N(C(=O)c1csnn1)C1CC1 (stereo not given),-1.0,0%,3,0,-2.8,0.3,0.2,-7
CCCNC(=O)c1cccc(Cn2cc(Br)c([N+](=O)[O-])n2)c1,nt,nt,42,-11,5.8,6.5,0.1,-1
CC1CCCCC1NC(=O)Cn1c(=O)oc2cc(S(=O)(=O)N3CCCC3)ccc21 (stereo not given),2.8,nt,-12,1,3.4,3.5,0.2,-1
C=CCn1c(SCC(=O)Nc2c(C)n(C)n(-c3ccccc3)c2=O)nc2ccccc2c1=O,-1.6,-3%,nt,-6,-3.4,nt,1.8,nt
Cc1ccccc1NC(=S)Nc1cccc([N+](=O)[O-])c1,nt,7%,-3,4,-2.9,0.7,0.0,3
CCN(CC(=O)NCc1cccs1)S(=O)(=O)c1ccc(F)cc1,3.9,-2%,-6,-1,-6.6,-3.8,1.6,-1

# Further results follow:
Compound,MLL AF4-AF9 inh,Vif TR-FRET,T cruzi repl,Beta cell apopt,LANA-H2B inh,RanGTP-Impb inh,Bfl-1 A1 inh,Calb FLC
O=C(CN1CCN(S(=O)(=O)N2CCOCC2)CC1)Nc1cc(Cl)cc(Cl)c1,-1.8,nt,10,-1,-3.6,-2.4,0.3,-7
C=C1CSc2nc3ccccc3c(=O)n21,nt,-1%,-8,-7,2.9,0.3,0.3,7
CC(C)c1cc(C(C)C)c(S(=O)(=O)N2CCNCC2)c(C(C)C)c1,7.8,nt,7,-7,0.8,-0.3,0.1,-20
CCCOc1ccc(N2C(=O)CC(N(Cc3ccccc3)N=O)C2=O)cc1 (stereo not given),-2.0,5%,-9,-11,-0.6,-1.5,0.5,-9
Cc1c(Br)c([N+](=O)[O-])nn1CC(=O)Nc1sc2c(c1C(=O)OC(C)C)CCC(C)C2 (stereo not given),nt,nt,-1,-3,5.1,1.1,-0.1,0
Cc1cc(C)c2c3c(sc2n1)C(c1ccccc1)C(C#N)=C(N)O3 (stereo not given),-21,5%,48,2,-3.1,15,0.5,8
CC1(C)CC(=O)c2c(O)cc(O)cc2O1,nt,0%,-6,2,-0.2,7.4,-0.4,15
C#CCOCCOCCOCCNc1nc(N2CCN(C(=O)[C@H]([C@@H](C)CC)n3cc([C@@H](N)Cc4ccc(O)cc4)nn3)CC2)nc(N2CCN(C(=O)[C@H]([C@@H](C)CC)n3cc([C@@H](N)CC(C)C)nn3)CC2)n1,13,nt,1,4,-1.2,3.8,0.2,2
CCOc1ccc(-c2nn(-c3ccccc3)cc2/C=C2\SC(=S)N(Cc3ccco3)C2=O)cc1,-0.3,5%,-36,3,-3.6,?,2.5,37
O=C(NCc1nc2ccccc2[nH]1)c1cccc(S(=O)(=O)N2CCOCC2)c1,nt,2%,-5,-5,4.8,6.2,0.3,-3
COc1ccc(NC(=O)CSc2nnc(CN3CCOCC3)n2-c2ccccc2)cc1Cl,nt,7%,27,1,1.7,2.4,1.4,-1
CCCc1ccc2oc(C(=O)N(Cc3ccncc3)CC3CCCO3)c(C)c2c1 (stereo not given),1.4,-1%,30,5,-8.1,-3.4,0.0,10
CCOC(=O)c1cccc(NC(=O)CC2Oc3ccccc3NC2=O)c1 (stereo not given),-2.4,-3%,-16,-1,4.4,-0.3,0.7,6
O=C(Nc1cccc(NC(=O)c2cccc(F)c2)n1)c1cccc(F)c1,-18,8%,3,-1,9.1,-2.3,-0.3,34
O=C(NC1CCCc2ccccc21)C1CCN(S(=O)(=O)N2CCCCCC2)CC1 (stereo not given),nt,1%,-9,1,1.0,5.7,-0.3,4

# 3 entries drawn at random from those above, as already listed:
Compound,MLL AF4-AF9 inh,Vif TR-FRET,T cruzi repl,Beta cell apopt,LANA-H2B inh,RanGTP-Impb inh,Bfl-1 A1 inh,Calb FLC
C=C1CSc2nc3ccccc3c(=O)n21,nt,-1%,-8,-7,2.9,0.3,0.3,7
O=C(Nc1cccc(NC(=O)c2cccc(F)c2)n1)c1cccc(F)c1,-18,8%,3,-1,9.1,-2.3,-0.3,34
COc1ccc(NC(=O)CSc2nnc(CN3CCOCC3)n2-c2ccccc2)cc1Cl,nt,7%,27,1,1.7,2.4,1.4,-1
